# Calb FLC – affects C. albicans growth with fluconazole; C. albicans CaCi-2 (fluconazole-resistant clinical isolate) + fluconazole, Alamar Blue growth, 48 h; growth inhibition, % (concentration not given with the values); actives 0.57% (n = 300,000);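 active = most replicates above 75%; inconclusive = exactly half above 75%; inactive = most below 75%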;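 also: all wells also contain fluconazole at 8 µg/ml as a sub-toxic cotreatment; 0% = median of DMSO wells and 100% = median of geldanamycin control wells; wells of about 8 µL received 7.5 nL stock; the first replicate is given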
# T cruzi repl – T. cruzi replication inhibition; T. cruzi beta-gal in NIH3T3, luminescence, 90 h; inhibition, % (no concentration beside the values); actives 1.4% (n = 300,000); AID 1885;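 active = mean inhibition across valid replicates above about 55%, limit read from the data; inconclusive = mean below that limit but half or more replicates reach it; inactive = mean below it, under half of replicates reach it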;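 also: signal also drops with host cell toxicity which is not excluded here; 0% = plate median of DMSO wells and 100% = zero luminescence signal; higher percent means less beta-gal luminescence so fewer parasites; stock transfer was 50 nL into about 50 µL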
# RanGTP-Imp inh – disruptors of Ran-importin-beta complex formation – biochemical, FRET, CFP-Ran, YFP-importin-beta, homogeneous, primary screen; cell-free CFP-Ran/YFP-importin-beta FRET ratio; inhibition, % (concentration not given with the values); actives 1.1% (n = 300,000);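 active = most replicates above 15%; inconclusive = exactly half above 15%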;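 also: 0% = DMSO wells and 100% = Ran loaded with GDP instead of GTP; wells of about 40 µL received 100 nL stock; the first replicate is given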
# Beta2AR agonist – activates human beta-2 adrenergic receptor causing internalization; P07550; Am2.2-beta2AR cells, FAP receptor internalization, flow cytometry; reference of the scale not given here; response, % (concentration not given with the values); actives 0.43% (n = 340,000); AID 504454;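 active = response above a set limit, near 3 SD of response in nonfluorescent compounds, cut at about 42% in these data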;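 also: stock transfer was 100 nL into about 11 µL; a reference agonist was the positive control; negative values mostly stem from fluorescent compounds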
# Target sequence (P07550 whole entry, looked up): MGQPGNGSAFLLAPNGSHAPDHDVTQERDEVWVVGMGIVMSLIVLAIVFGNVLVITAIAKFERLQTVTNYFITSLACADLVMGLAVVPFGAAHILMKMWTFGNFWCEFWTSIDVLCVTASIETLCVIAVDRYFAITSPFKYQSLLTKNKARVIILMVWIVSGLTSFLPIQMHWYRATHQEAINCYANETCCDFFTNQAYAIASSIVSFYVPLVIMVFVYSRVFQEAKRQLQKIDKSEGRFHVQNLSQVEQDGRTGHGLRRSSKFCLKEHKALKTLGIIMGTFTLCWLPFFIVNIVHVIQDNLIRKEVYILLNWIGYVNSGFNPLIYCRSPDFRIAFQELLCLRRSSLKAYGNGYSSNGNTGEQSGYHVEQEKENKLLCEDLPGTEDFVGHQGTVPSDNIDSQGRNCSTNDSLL
# A1 inh – inhibitors of the anti-apoptotic protein A1, read as caspase activation. caspase activation, % (concentration not given with the values). actives 0.066% (n = 330,000). MEF A1-2A-BIM cells, Caspase-Glo 3/7 luminescence, 3 h; percent of clofoctol response, vehicle zero;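 active = over half of replicate activation scores above 10%, or exactly half above 10 with the replicate mean above 10; inconclusive = replicate mean below 10 yet half the replicates above 10; inactive = over half of replicates below 10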;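 also: wells of about 30 µL received 50 nL stock; many hits fall short of the cut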
# Beta cell apopt – beta cell apoptosis inhibition. INS-1E cytokine-induced death, ATP luminescence, 48 h; percent of positive-control rescue, neutral wells zero. protection from apoptosis, % (no concentration beside the values). actives 0.8% (n = 300,000). AID 435005;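 active = all replicates at 75% or more, or half of them and the mean; inconclusive = half reach 75% but not the mean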;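 also: 0% = cytokine-treated negative control wells and 100% = positive control rescue; higher means more ATP so stronger rescue from cytokine killing; wells of about 40 µL received 100 nL stock; the first replicate is given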
# UCH37 inh – blocks the human deubiquitinase UCH37; inhibition, % (test concentration not listed); actives 0.33% (n = 330,000); purified proteasome/UCH37, Ub-AMC cleavage fluorescence;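 active = mean of two replicates above 20%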;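 also: 0% = compound-free wells with enzyme and 100% = wells lacking proteasome; stock transfer was 100 nL into about 20 µL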
# Target sequence (Q9Y5K5 whole entry, looked up): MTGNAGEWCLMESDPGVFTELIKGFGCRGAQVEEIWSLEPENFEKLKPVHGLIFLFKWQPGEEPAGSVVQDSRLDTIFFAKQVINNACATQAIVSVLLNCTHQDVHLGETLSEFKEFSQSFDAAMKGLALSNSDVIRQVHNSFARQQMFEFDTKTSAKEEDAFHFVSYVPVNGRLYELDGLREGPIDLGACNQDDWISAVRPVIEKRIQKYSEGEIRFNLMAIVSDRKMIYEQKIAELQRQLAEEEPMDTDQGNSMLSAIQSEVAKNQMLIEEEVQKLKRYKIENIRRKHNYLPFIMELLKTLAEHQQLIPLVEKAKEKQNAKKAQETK
#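 Reagent: Ub-AMC substrate; assay system: Proteasome-associated human UCH37 deubiquitinase; controls: no-proteasome and no-compound wells; read-out: % inhibition of Ub-AMC cleavage fluorescence; timing: 30 min preincubation with enzyme, 25 min cleavage at room temperature; signal: AMC fluorescence from Ub-AMC cleavage, excitation 355 nm, emission 460 nm; buffer or medium: Tris-HCl pH 7.4 plus ovalbumin, ATP-MgCl2, DTT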
# LANA-H2B inh – blocks KSHV LANA binding to histone H2A/H2B; inhibition, % (no concentration beside the values); cell-free LANA-H2A/H2B peptide, fluorescence polarization; actives 0.6% (n = 320,000); AID 2629; in the data active = inhibition mostly above about 10%, no sharp cut-off; inactive = mostly below about 6.7%;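 also: stock transfer was 7.5 nL into about 10 µL; 0% = median of vehicle wells and 100% = median of positive control wells; one replicate is shown; the record names a cut of 25% in any replicate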
# An asterisk follows results filed as active; i = inactive; ? = inconclusive; / = no result given.
No.	SMILES	A1 inh	Calb FLC	UCH37 inh	T cruzi repl	LANA-H2B inh	RanGTP-Imp inh	Beta2AR agonist	Beta cell apopt
1	O=C(O)c1[nH]c2ccccc2c1CC(=O)N1CCOCC1	0.8	28	-2.2	-5	-2.2	-0.8	0	-6
2	Cc1ccc(S(=O)(=O)NCCNc2ccccc2[N+](=O)[O-])cc1	0.1	16	8.0	5	0.3	-3.6	2	-11
3	COc1ccc(S(=O)(=O)NCC(c2cccnc2)N2CCN(C)CC2)cc1OC (stereo unspecified)	-1.6	-1	/	9	1.4	1.3	2	-22
4	C=CCn1c(-c2ccc(OC)c(OC)c2)cs/c1=N\c1ccccn1	0.4	6	/	-16	-2.3	-0.7	0	-6
5	COc1cccc(CN2CCNC(=O)C2CC(=O)N(C)C2CCCCC2)c1 (stereo unspecified)	-0.2	4	-2.7	-1	2.8	-1.7	10	-10
6	Cc1cc(Cl)c(S(=O)(=O)N2CCN(c3ccc(F)cc3)CC2)cc1OCC(=O)NC1CCCCC1	1.0	2	0.2	?	6.2	6.3	0	103*
7	COCCCNCCCCOc1ccc(C)cc1[N+](=O)[O-]	-0.5	-11	0.3	13	-2.9	0.7	-36	-6
8	COc1cc(CC(=O)OCC(=O)Nc2ccc3c(c2)OCCO3)cc(OC)c1OC	-0.2	2	3.2	6	-0.4	-0.4	2	-7
9	CCC(C)C(NC(=O)OC(C)(C)C)C(=O)NC(C(=O)NC(C)C(N)=O)C(C)C (stereo unspecified)	0.2	-7	-0.1	-5	1.1	-0.6	4	-1
10	N#Cc1ccccc1OCC(=O)Nc1c(C(=O)C2CC2)oc2ccccc12	0.6	1	-38	9	-1.2	3.4	0	1
11	O/N=C(\C[n+]1ccccc1)c1ccc(Br)cc1	0.5	-2	/	-13	4.7	0.5	-2	-3
12	OCCOCCn1c(-c2ccccc2)nc(=S)c2c1CCCC2	-0.1	0	5.3	3	-4.5	-0.3	20	/
13	COc1ccc(NC(=O)C2CCN(S(=O)(=O)c3cccc4nonc34)CC2)cc1OC	0.2	-9	0.5	3	-0.4	-3.9	8	1
14	COc1ccc(NC(=O)COC(=O)/C=C/c2ccccc2[N+](=O)[O-])cc1	-1.1	-7	5.0	-20	-5.6	8.0	-1	-2
15	COc1ccc(N2C(=O)CC(NC34CC5CC(CC(C5)C3)C4)C2=O)c(OC)c1 (stereo unspecified)	0.4	16	3.0	-18	-3.1	-0.4	2	-2
16	COc1cc(CCC(=O)OCc2ccccc2C#N)cc(OC)c1OC	0.6	-5	0.5	-7	-1.7	-1.6	-2	-3
17	CCOC(=O)C1CCN(C2CC(=O)N(c3cccc(Cl)c3)C2=O)CC1 (stereo unspecified)	1.9	-9	3.1	-23	6.4	2.5	10	-5
18	CCOCCCNC(=S)Nc1ccc2nc(N3CCCC3)cc(C)c2c1	0.5	-7	-20	31	-2.3	1.1	-8	1
19	N#Cc1cnn(-c2ccccc2)c1N	-0.4	-4	-2.7	0	2.0	5.6	1	-1
20	O=S(=O)(CCN1C=CC(C(F)(F)F)=NCC1)c1ccc(F)cc1	2.2	-4	8.1	-10	3.0	-3.2	-6	-5
21	O=C1CN(C(=O)c2cc3ccccc3o2)c2ccccc2N1	0.5	6	3.3	-15	/	-3.0	-8	-5
22	O=C1CCC(C(=O)NCc2cccnc2)N1 (stereo unspecified)	-1.1	-2	-6.3	1	3.1	3.9	-3	-4
23	COCCNC(=S)N/N=C/c1ccccc1C(=O)O	1.2	-13	/	-8	-0.8	?	10	0
24	O=C(/C=C/c1ccccc1[N+](=O)[O-])NCC1CCCO1 (stereo unspecified)	-0.4	-1	5.1	-5	-3.2	5.5	1	-4
25	CCOC(=O)N1CCN(C(=O)Nc2ccccc2)CC1	0.5	-6	1.1	-15	-1.3	0.4	5	-4
26	CCc1noc(C)c1C(=O)N1CCCSC1=Nc1ccccc1	0.9	-7	1.1	-1	i	/	2	-3
27	CN1CCN(c2ccc(S(=O)(=O)N3CCCCC3)cc2NC(=O)COc2ccc([N+](=O)[O-])cc2)CC1	0.4	1	-0.6	58*	0.1	/	27	2
28	CCOc1ccc(C(=O)COC(=O)c2cc(=O)[nH]c3ccccc23)cc1	-0.4	6	-37	-13	-12	/	-5	-4
29	C=C(C)C(=O)Nc1ccc(NC(C)C)cc1	-2.8	-15	4.3	-16	-6.9	?	1	5
30	Cc1sc(N2C(=O)C3C(C2=O)[C@H]2C=C[C@@H]3C2)c(C#N)c1C (stereo partly specified)	1.0	1	4.3	-9	2.9	5.6	3	-9
31	COc1ccccc1/C=C/CN1CCC(n2nccc2NC(=O)CCc2ccccc2)CC1	-0.2	4	2.4	33	-7.4	3.5	3	78*
32	O=[N+]([O-])c1ccc(N/N=C/c2c[nH]c3ccccc23)cc1	0.0	-15	/	5	1.5	-6.0	-214	12
33	COCCN(C(=O)COc1ccccc1)c1nnc(-c2cccnc2)s1	1.5	-2	-2.6	4	0.5	4.0	1	-6
34	CCCCCCCCNC(C)C(O)c1ccc(SC(C)C)cc1 (stereo unspecified)	-0.7	-36	1.7	?	-14	0.7	24	117*
35	COc1cccc(CNC(=O)C2CCN(C(=O)N3CC(C)Oc4ccccc43)CC2)c1 (stereo unspecified)	0.0	7	0.9	0	-1.6	2.4	-7	7
36	COc1ccc(C(=O)Nc2ccccc2C(=O)N2CCOCC2)cc1	0.3	6	1.5	-24	-11	1.4	-4	/
37	CCOC(=O)c1csc(NC(=O)c2ccc(OCC)cc2)n1	-0.1	27	3.6	2	3.1	-2.3	-5	3
38	CS(=O)(=O)Nc1ccc(C(=O)N2CCCCC2)cc1	0.1	9	-0.2	-14	-4.3	0.6	6	0
39	Cc1cccc(CCNS(=O)(=O)c2ccc(S(=O)(=O)N3CCCCC3)cc2)c1	-0.7	-1	3.2	-3	3.0	1.0	-3	-1
40	Cc1ccc(C(CNS(=O)(=O)c2ccc([N+](=O)[O-])cc2)N2CCN(C)CC2)cc1 (stereo unspecified)	-0.2	-9	0.1	58*	3.5	-1.9	-5	2
41	CCC(=O)N(C)CCc1cc2c(c(OC)c1/C=N/NS(=O)(=O)c1ccc(C)cc1)OCO2	0.9	-9	/	7	-2.0	7.3	-7	-1
42	CCCNC(=O)NC(=O)CN1CCCC1c1ccc2c(c1)OCCO2 (stereo unspecified)	0.8	-1	0.1	-7	-3.8	-3.5	-3	/
43	COC(=O)C1CCN(CCCOc2ccc(CN3CCN(c4ccc([N+](=O)[O-])cc4)CC3)cc2)CC1	1.0	1	/	26	0.3	-2.1	10	8
44	O=C(CNC(=O)c1cnccc1C(F)(F)F)c1cccc(Cl)c1	0.5	1	1.6	/	3.1	1.1	7	5
45	Cc1cccc(OCCCC(=O)Nc2nccs2)c1	0.2	-2	-5.8	2	-0.7	2.3	4	-5
46	O=S(=O)(c1cccc(S(=O)(=O)N2CCC(Cc3ccccc3)CC2)c1)N1CCOCC1	-0.1	4	0.5	21	4.2	-0.5	3	0
47	O=C(c1ccc(OC2CCN(Cc3ccccn3)CC2)cc1)N1CCCC(O)C1 (stereo unspecified)	0.2	-5	3.6	-16	-0.4	-0.7	8	-4
48	OCC1(CCOc2ccccc2)CCN(CCCn2cccn2)CC1	0.0	?	0.5	-1	-5.1	3.0	7	-4
49	Cc1ccnc2nc(C(=O)OCC(=O)Nc3ccc([N+](=O)[O-])cc3Br)nn12	0.9	/	6.7	/	1.0	/	3	-1
50	O=C(N/C(=C/c1cccs1)C(=O)N1CCCCCC1)c1ccccc1	0.4	-13	2.7	0	2.0	-4.2	2	/
51	CCC(=O)Nc1ccc(C(=O)NNC(=O)Cc2ccccc2)cc1	0.1	-12	1.7	-11	-2.4	-2.3	-4	2
52	CCN1C(=O)C2(SC(NC(C)=O)=NN2C(C)=O)c2cc(C)cc(C)c21 (stereo unspecified)	0.5	-2	1.6	1	0.5	1.0	-4	-2
53	CC(C)CNC(=O)COC(=O)c1ccc(Cl)c(S(=O)(=O)N2CCc3ccccc32)c1	-0.7	-4	4.5	-7	-6.7	-2.7	3	3
54	Cc1nn2c([nH]c(=O)c3ccccc32)c1C=O	0.4	83*	4.5	-14	1.0	0.1	7	-2
55	Cc1ccccc1C(=O)Nc1cccc(N)c1	0.6	0	-2.2	-3	-1.7	-0.5	5	-4
56	CCN1CCN(C(c2cccs2)C(C)NC(=O)C(C)C)CC1 (stereo unspecified)	-0.4	-4	-0.9	-17	7.9	7.7	6	3
57	Cc1ccc(C)c(CNS(=O)(=O)c2c(C(=O)N3CCCC3)c(C)n(C)c2C)c1	-0.8	10	0.4	6	-4.0	1.5	0	/
58	O=C(C1CCN(S(=O)(=O)c2cccc3cccnc23)CC1)N1CCN(c2ccc(Cl)cc2)CC1	0.6	0	8.7	16	-0.4	-1.9	-19	/
59	CC1CC(C)CN(S(=O)(=O)c2ccc3c(c2)oc(=O)n3CC(=O)NCc2cccnc2)C1 (stereo unspecified)	-0.2	14	4.8	18	-1.1	7.5	10	-2
60	CC(NC(=O)c1ccncc1)c1ccc(Cl)cc1Cl (stereo unspecified)	0.8	-15	4.2	14	-0.8	-0.9	0	-3
61	Cn1nc(C(C)(C)C)cc1C(=O)NN1CCOCC1	-0.3	-8	1.1	-9	0.2	5.1	2	0
62	CC1(C)Cc2c(cnn2-c2ccccc2)C(=O)/C1=N\NC(=O)c1ccccc1N	0.8	-23	7.6	-6	0.1	-2.5	2	-7
63	CCOc1ccc(CCNC(=O)Nc2cccc(OC)c2)cc1OCC	-1.5	19	2.8	4	-1.9	4.4	4	-3

# Screening data (PubChem)
